KCNQ2 pot: potentiators of rat KCNQ2 potassium channel; CHO-K1 KCNQ2, FluxOR thallium flux fluorescence; active compounds read high; B-score at 10 µM; 0.54% of 310,000 active; AID 2239;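 active = fluorescence ratio B-score at least 3 SD of library B-scores, with initial fluorescence B-score within 3 SD, cut at about 5.3 in these data; same plate scores as AID 2156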;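 also: B-score of peak minus minimum over baseline fluorescence ratio after K+ and Tl+ stimulus; positive B-score means potentiation of KCNQ2 with more thallium influx and brighter signal; only the inactives scoring about 0 or higher are listed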
Target sequence (O88943 whole entry, looked up): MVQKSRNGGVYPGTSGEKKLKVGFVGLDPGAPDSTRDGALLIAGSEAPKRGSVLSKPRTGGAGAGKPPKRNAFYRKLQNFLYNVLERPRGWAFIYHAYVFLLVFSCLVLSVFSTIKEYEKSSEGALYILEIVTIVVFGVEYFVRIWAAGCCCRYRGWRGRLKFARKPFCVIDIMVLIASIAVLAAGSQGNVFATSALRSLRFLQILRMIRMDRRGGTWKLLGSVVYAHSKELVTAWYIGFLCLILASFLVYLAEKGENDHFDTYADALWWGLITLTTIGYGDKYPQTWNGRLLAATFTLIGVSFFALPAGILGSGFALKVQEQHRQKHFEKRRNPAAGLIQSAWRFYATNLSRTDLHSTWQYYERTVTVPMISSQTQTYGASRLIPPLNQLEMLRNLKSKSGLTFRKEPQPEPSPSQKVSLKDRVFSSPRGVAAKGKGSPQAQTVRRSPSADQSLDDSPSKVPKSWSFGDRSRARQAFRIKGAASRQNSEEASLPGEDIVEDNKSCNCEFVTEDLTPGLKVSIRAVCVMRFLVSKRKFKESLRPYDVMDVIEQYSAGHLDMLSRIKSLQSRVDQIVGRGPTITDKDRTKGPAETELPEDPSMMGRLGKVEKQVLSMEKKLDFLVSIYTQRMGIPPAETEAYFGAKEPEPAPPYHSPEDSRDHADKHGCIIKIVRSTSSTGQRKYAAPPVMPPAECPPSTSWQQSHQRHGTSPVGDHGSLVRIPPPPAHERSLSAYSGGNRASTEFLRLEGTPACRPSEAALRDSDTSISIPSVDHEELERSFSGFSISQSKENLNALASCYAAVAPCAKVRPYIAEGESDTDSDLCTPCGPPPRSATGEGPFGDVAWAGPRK
KCNQ2 pot baseline: recorded beside KCNQ2 pot, whose call it bears; B-score; compound at 10 µM; measured here: initial fluorescence intensity artifact check;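 brightness before thallium and not channel activity; 0 = typical well and far values either way flag optical interference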
Active calls of the source: *. This is a subset; rates above refer to the full screens.

canonical_smiles	KCNQ2 pot	KCNQ2 pot baseline
Cc1ccc2sc(N(CCCN(C)C)C(=O)c3nc4ccccc4s3)nc2c1C	0.83	0.12
CCCCOc1ccc(/C(N)=N/O)cc1	1.9	-0.18
COc1ccc(/C=N/N2CCOCC2)cc1O	0.89	0.34
N#Cc1ccccc1OCC(=O)N1CCc2ccccc2C1	0.23	-0.04
CCN(C(=O)COC(=O)c1ccccc1NC(=O)c1ccco1)C1CCS(=O)(=O)C1 (stereo not drawn)	0.82	-2
Cc1cc(Cn2nc(-c3ccccc3)cc2C(=O)NCc2cccc(Br)c2)on1	0.29	1.1
CCN(CC)CCNc1ncnc2c1sc1nc(N3CCCC3)c3c(c12)CC(C)(C)OC3	5.8*	-0.15*
CCOC(=O)C1CCCN(C(=O)CN2C(=O)COc3ccc(C(C)(C)C)cc32)C1 (stereo not drawn)	0.81	0.15
CC(C)(C)N(Cc1cc2ccccc2[nH]c1=O)C(=O)c1cccnc1	1.2	-0.16
O=C(Nc1ccc(NC(=O)c2cc3ccccc3o2)cc1)c1ccc2c(c1)OCCO2	1.4	0.7
Cc1ccc(OCC(=O)N(Cc2ccccc2)C(C)(C)C)c([N+](=O)[O-])n1	0.14	1
Cc1noc(NS(=O)(=O)c2ccc(N3C(=O)c4ccccc4C3=O)cc2)c1C	0.08	0.03

The closing two records of the part before lead into the next.
canonical_smiles	KCNQ2 pot	KCNQ2 pot baseline
Cc1ccc(OCC(=O)N(Cc2ccccc2)C(C)(C)C)c([N+](=O)[O-])n1	0.14	1
Cc1noc(NS(=O)(=O)c2ccc(N3C(=O)c4ccccc4C3=O)cc2)c1C	0.08	0.03
Cc1nc2nc(-c3ccc(Cl)cc3)nn2c(C)c1Cl	0.76	1.6
CN(C)C(=O)c1nnc(Cc2ccc(Cl)cc2)o1	1.3	0.08
O=C(NCCN1CCN(Cc2ccccc2)CC1)c1ccc(CS(=O)(=O)c2ccc(Br)cc2)o1	1.8	0.81
CCN1CCN(Cc2c(C(=O)N/N=C(\C)c3ccc(Cl)c(Cl)c3)nnn2-c2nonc2N)CC1	0.52	-0.82
Cc1ccc(/C=N/NC(=O)c2cccs2)o1	0.66	0.85
COc1ccc(N(C(=O)c2ccco2)S(=O)(=O)c2cccs2)cc1	1.1	-0.03
NCCNC(=O)c1ncsc1-c1cccc(F)c1	2.8	-0.53
CC(=O)Nc1nc(C)c(C(C)C)s1	0.5	1.7
CCN(CC)CCCNC(=O)C1CCC(CNS(=O)(=O)c2c(C)cc(C)cc2C)CC1 (stereo not drawn)	0.7	-0.8
COC(=O)c1c(-c2ccc(F)cc2)noc1N	1.1	0.64
COC(=O)c1ccccc1NC(=O)[C@@H]1CCC(=O)N1C1OC(=O)c2c1ccc(OC)c2OC (stereo partly drawn)	0.69	0.01
Cc1ccc(-n2c(C)cc(/C=N/NC(=O)c3ccncc3)c2C)cc1C	0.44	0.8
Cc1[nH]c2ccccc2c1C(=O)CSCC(=O)O	2	0.41
CCCCn1nnnc1SCC(=O)NNC(=O)c1ccco1	0.91	0.04
COc1ccc(NC(=O)CN(C)C(=O)c2c(C)nn(-c3ccccc3)c2Cl)cc1	0.67	-0.01
Nc1ncnc2c1ncn2CCN1CCOCC1	0.3	-0.98
CCCCNC(=O)Nc1ccccc1C(=O)NCCC	1.8	-0.7
CCOc1ccccc1NC(=O)CCNS(=O)(=O)c1ccccc1	0.39	-0.15
CCN(Cc1ccccc1)C(=O)c1cccnc1	0.29	-0.84
Nc1nc(CSc2ccccc2)nc(N2CCCCC2)n1	1.3	0.19
CCn1nnnc1SCC(=O)Nc1nc(C)c(C)s1	0.13	0.13
C=CCN1C(=O)/C(=N/n2cnnc2)c2ccccc21	0.32	-0.72
CCCNC(=O)Cn1cnc2sc(C(=O)N3CCN(Cc4ccc5c(c4)OCO5)CC3)c(C)c2c1=O	0.84	0.15
Cn1c(-c2ccc3nc(N)sc3c2)nc2cc(N)ccc21	0.58	-0.53
CCSc1nnc(-c2cccnc2)n1-c1ccc(C)c(Cl)c1	0.84	0.01
Cc1ccc(C)c(CN2CCC(CNC(=O)Nc3ccc(Cl)cc3)CC2)c1	1.5	-0.85
COc1cc(/C=N/NC(=O)Cn2cnc3c2c(=O)n(C)c(=O)n3C)cc(OC)c1OC	0.53	0.07
CC1CCCCN1CCCNc1ccc(C(CC(N)=O)NC(=O)Cc2ccc(Br)cc2)cc1[N+](=O)[O-] (stereo not drawn)	1.1	1.7
NC(=O)NCc1ccc(C(=O)OCc2ccncc2)cc1	0.26	0.33
CCN(Cc1ccccc1)C(=O)CN1C(=O)c2ccccc2S1(=O)=O	0.34	0.52
CCc1ccc(-c2cc(C)no2)cc1S(=O)(=O)N1CC(=O)Nc2ccccc21	0.06	-0.53
CCOC(=O)c1sc2nc3c(SCC(=O)O)cc(C(=O)c4cc(F)ccc4O)cn3c(=O)c2c1C	1.4	-0.07
CC(=O)C1=C(C)NC(=O)NC1c1cccc([N+](=O)[O-])c1O (stereo not drawn)	0.68	0.68
Cc1ccccc1C(=O)Nc1nnc(-c2cccnc2)o1	1.7	-0.7
CCOC(=O)C1CCCN(C2=NC(=O)/C(=C/c3ccc(OC)cc3OC)S2)C1 (stereo not drawn)	2.2	-1.6
Cc1ccc(S(=O)(=O)N2CCOCC2)cc1C(=O)N1CCOCC1	0.92	-2.1
C/C(=N\NC(=O)c1cccnc1)c1nnn(-c2nonc2N)c1C	1.4	-0.32
O=C(NCc1ccccc1)NC1(C(=O)N2CCN3CCCC3C2)CCCCC1 (stereo not drawn)	1.6	-0.81
CCc1ccc(NC(=O)c2cnc3n(c2=O)CCS3)cc1	4.9	-1.4
C/C(Cn1nc([N+](=O)[O-])cc1C)=N\NC(=O)c1cccc(Br)c1	1.3	0.9
O=[N+]([O-])c1ccc(COc2ccccc2/C=N/O)cc1	1.8	-1.9
NS(=O)(=O)c1ccc(N/C=C\C(=O)c2cccc3ccccc23)cc1	0.96	-1
CCN(CC)c1ccc(NC(=S)NC(=O)c2ccco2)cc1	11*	1.8*
CC(C)C(=O)Nc1ccc2c(c1)nc1n2CCSC1	0.49	0.43
CC1Cn2c(nc(=O)c3c2NCN(CCc2ccccc2)C3)S1 (stereo not drawn)	0.28	-1.3
CCOC(=O)C(C)Oc1cccc2c(=O)n(CC(=O)Nc3cccc(OC)c3)ccc12 (stereo not drawn)	0.67	-0.26
CCn1c2ccccc2c2cc(CC(N)=O)ccc21	1.1	-0.23
CCN1CCN(c2ccc(S(=O)(=O)N3CCCCC3)cc2NC(=O)c2cccc(OC(F)F)c2)CC1	0.96	-0.76
Cc1ccc(NC(=O)CN2C(=O)S/C(=C\c3ccc(OCC(=O)O)c(Br)c3)C2=O)cc1	1.7	-1.5
CCOc1ccccc1C(=O)N/N=C/c1coc2ccc(Cl)cc2c1=O	0.1	-0.96
CC(/C=N/n1c(-c2cccnc2)n[nH]c1=S)=C\c1ccco1	0.04	0.4
CCOc1cc(C(=O)Nc2ccc3c(c2)OCO3)ccc1OCCOc1ccccc1Cl	0.1	0.2
O=C(Nc1cccnc1N1CCOCC1)c1cc2ccccc2oc1=O	1	-1.4
NC(=S)N/N=C/c1ccc(-c2cc(Cl)c(Cl)cc2Cl)o1	0.75	-1.3
c1ccc(-c2nnc(CN3CCCCC3)o2)cc1	1.4	-0.65
CC1CCCCN1C(=O)Cn1cnc2cc([N+](=O)[O-])ccc2c1=O (stereo not drawn)	0.01	-2.3
CCN(CC)CCNC(=O)c1ccc(N2CCCCC2)c(NS(=O)(=O)c2ccc(C)cc2)c1	0.86	-3.2
NC(=O)[C@@H]1CC2(CC(c3cccc(NC(=O)[C@H]4CCC(=O)N4)c3)=NO2)CN1C(=O)COc1ccc(Cl)cc1 (stereo partly drawn)	0.69	0.76
O=[N+]([O-])c1cccc(P(=O)(O)c2cccc([N+](=O)[O-])c2)c1	0.15	0.66
COc1ccc(-n2nccc2-c2nn(-c3cccc(OC)c3)c(=O)n(C)c2=O)cc1	0.37	0.34

The listing continues.
canonical_smiles	KCNQ2 pot	KCNQ2 pot baseline
Cc1ccc(S(=O)(=O)N(C)C)cc1NC(=S)NC(C)CCC(C)C (stereo not drawn)	1.9	-1.3
CCN1C(=O)/C(=C2\Sc3ccccc3N2CC)OC1=S	2.8	-0.12
CCOc1ccc(OCC)c(NC(=O)CCS(=O)(=O)c2ccc(Br)s2)c1	0.77	-1.2
CCN1C(=O)/C(=C2\C=Cc3ccccc3N2CC)OC1=S	0.36	0.54
CC(C)=CCN1CCN(Cc2nc(C(C)C)cs2)CC1CCO (stereo not drawn)	1.5	0.02
Cc1ccc(S(=O)(=O)NCCC(=O)N2CCCCCCC2)cc1C	1.3	1.3
COc1ccc(-c2c(-c3cc(OC)c(OC)c(OC)c3)noc2C)cn1	0.18	0.62
O=C(CCCSc1nc(-c2ccco2)cc(C(F)(F)F)n1)NCC1CCCO1 (stereo not drawn)	1.1	-0.52
O=c1[nH]c2ccsc2c(=O)n1CCO	0.33	0.07
CC1CN(C(=O)c2cc(S(=O)(=O)N(C)c3ccc(F)cc3)ccc2Cl)CC(C)O1 (stereo not drawn)	0.32	0.79
CCC(C)(C)c1ccc(Oc2cccc(C(=O)O)c2)cc1	0.96	-0.01
COc1ccc(S(=O)(=O)N2CCC(C(=O)NCc3ccccn3)CC2)cc1C	0.11	0.02
CCC(C(=O)NC1CCCC1)N(C(=O)Cn1nnc(-c2ccc(OC)c(OC)c2)n1)c1cccc(O)c1 (stereo not drawn)	0.41	1.9
Cc1ccc(NC(=O)c2ccc(CN3CCN(C)CC3)cc2)cc1Nc1nccc(-c2cccnc2)n1	3.4	1.2
NS(=O)(=O)c1ccc(NC(=O)CCC(=O)c2ccc(Cl)s2)cc1	0.14	0.72
CCN(CCCNC(=O)c1cn(CC)c2ccc(S(=O)(=O)N(C)C)cc2c1=O)c1cccc(C)c1	0.02	-1.3
CCc1ccc(Nc2ccc(S(=O)(=O)N3CCOCC3)cc2[N+](=O)[O-])cc1	0.92	-0.09
COc1ccc(Cl)cc1NC(=S)NCCN1CCOCC1	1.6	0.42
COc1ccc(NC(=O)c2ccc3c(=O)n4c(nc3c2)CCCCC4)cc1	3.3	-0.53
O=C(O/N=C1\CCCc2ccccc21)c1cccc(Cl)c1	0.46	-0.92
CC1(C)CC(NC(=O)C23CCC(C)(C(=O)C2)C3(C)C)CC(C)(C)N1 (stereo not drawn)	0.25	-1.4
Cc1ccc(C(=O)C(C)OC(=O)CCN=C2NS(=O)(=O)c3ccccc32)cc1 (stereo not drawn)	0.01	2.3
CC1Cc2ccccc2N1C(=O)CO/N=C/c1ccc(OC(F)F)cc1 (stereo not drawn)	0.09	-0.84
COc1ccc(CCNCc2cc3ccc(C)cc3[nH]c2=O)cc1OC	2.2	0.04

Compound profiles, as listed above.
NS(=O)(=O)c1ccc(NC(=O)CCC(=O)c2ccc(Cl)s2)cc1 in the list: KCNQ2 pot = 0.14; KCNQ2 pot baseline = 0.72
COc1ccc(NC(=O)c2ccc3c(=O)n4c(nc3c2)CCCCC4)cc1 in the list: KCNQ2 pot = 3.3; KCNQ2 pot baseline = -0.53
CC1Cc2ccccc2N1C(=O)CO/N=C/c1ccc(OC(F)F)cc1 (stereo not drawn) in the list: KCNQ2 pot = 0.09; KCNQ2 pot baseline = -0.84

Further entries follow:
canonical_smiles	KCNQ2 pot	KCNQ2 pot baseline
COC(=O)c1cccc(/C=N/NC(N)=S)c1O	2.6	-2.3
COc1cc(CC(=O)Nc2ncc(C)s2)cc(OC)c1OC	0.01	1.3
O=C(c1ccccn1)c1ncc(C(F)(F)F)cc1Cl	1.2	0.6
O=C1CSC2=NCN(c3ccccc3)CN12	0.12	-0.3
CC(=O)Nc1nc(N(C)C)nc(N(C)C)n1	0.49	-0.45
Cn1c(=O)n(C)c2cc(C(=O)Nc3ccc4c(c3)OCO4)ccc21	1.4	-0.03
COc1ccccc1C(CNC(=O)c1cccc(S(=O)(=O)Nc2ccc(C)cc2)c1)N1CCCC1 (stereo not drawn)	0.2	1.3
CCNC(=S)N1CCN(CC)CC1	1.4	0.25
Nc1ccc(C#Cc2ccccc2)cc1	0.96	-0.81
CC(C)(/C=N/NC(=O)CSCc1ccc(Cl)cc1)CCC#N	0.13	0.57
COCCn1nnnc1C(c1ccccc1)N1CCN(c2ccccc2)CC1 (stereo not drawn)	0.05	-1.1
CCCN(C(=O)c1cccc(-n2cccc2)c1)c1c(N)n(Cc2ccccc2)c(=O)[nH]c1=O	2.2	-0.63
Cc1ccc(N=Cc2cc(Cl)cc(Cl)c2O)nc1	12*	-0.03*
Cc1nn(CC(=O)NCCCN2CCCC2)c(=O)c2nn(-c3ccccc3)c(C)c12	0.48	1.3
O=c1cc(N2CCCC2)c(-c2ccccc2)n[nH]1	1.5	-1.2
CNc1ccc(Br)cc1C(O)c1ccccc1 (stereo not drawn)	0.89	-1.4
COc1cc(/C=C2/C(=N)N3C(=NC2=O)SN=C3S(=O)(=O)C(C)C)ccc1OC(=O)c1ccco1	0.8	-0.45
Cn1c(SCC(=O)N2CCN(c3ccccc3)CC2)nnc1-c1cc2ccccc2o1	0.54	-0.62
CCN1CCN(CCCNC(=O)c2ccc3c(c2)N(Cc2ccccc2)CCS3)CC1	0.65	-0.08
CN(C(=O)c1cccnc1)c1nnc(-c2cccnc2)s1	0.03	0.11
O=c1[nH]ncc(N2CCN(Cc3ccccc3)CC2)c1Cl	3	-1.6

Screening data (PubChem)
